# E coli growth – blocks Escherichia coli growth; OD600, 23 h; stronger effect = lower value; OD600 absorbance (concentration not given with the values); 330,000 compounds, 0.21% hits; AID 1053175;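 active = OD600 absorbance below the run mean of sample wells minus 3.6 SD, in any replicate, cut at about 0.56 in these data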;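 also: stock transfer was 300 nL into about 60 µL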
# HNF4A DNA FP – change in binding of human HNF4 alpha to DNA; HNF4a-FITC DNA binding, fluorescence polarization, 1 h; activity change, % at 10 µM; 360,000 compounds, 0.3% hits; in the data active = activity change above about 30%, passing the limit was not always enough;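 also: controls were the assay level and a saturating level of protein; the project sought stronger binding though the title names inhibitors; some compounds called inactive have numbers as strong as hits; positive values seem to mean higher polarization but the record does not say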
# Vif TR-FRET – inhibitors of Vif binding to APOBEC3G peptide, primary screen, biochemical, TR-FRET, GST-Vif 1-94, biotin-A3G peptide, dose response retest (AID 1117319). TR-FRET GST-Vif / biotin-A3G peptide binding; higher % means a stronger effect; test concentration not given here; strong numbers were not always called active. inhibition, %; hits with a dose series show IC50 in µM. 260,000 compounds, 0.57% hits;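 active = above the screen mean plus three standard deviations and confirmed in dose response; inconclusive = results disagree or hit not tested in dose response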;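 also: Vif residues 1-94 fused to GST binding biotinylated APOBEC3G peptide 110-148; 0% = full assay without inhibitor and 100% = GST in place of GST-Vif; retest series ran down from 100 µM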
# Bfl-1 A1 inh – inhibitors of the anti-apoptotic protein A1, read as caspase activation. 330,000 compounds, 0.066% hits. caspase activation, % (no concentration beside the values). AID 2462. MEF A1-2A-BIM cells, Caspase-Glo 3/7 luminescence, 3 h; percent of clofoctol response, vehicle zero;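 active = over half of replicate activation scores above 10%, or exactly half above 10 with the replicate mean above 10; inconclusive = replicate mean below 10 yet half the replicates above 10; inactive = over half of replicates below 10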;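 also: wells of about 30 µL received 50 nL stock; many hits fall short of the cut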
# LANA-H2A inh – blocks KSHV LANA binding to histone H2A/H2B | Q9QR71 | 320,000 compounds, 0.6% hits | cell-free LANA-H2A/H2B peptide, fluorescence polarization | inhibition, % (test concentration not listed) | AID 2629; in the data active = inhibition mostly above about 10%, no sharp cut-off; inactive = mostly below about 6.7%;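 also: stock transfer was 7.5 nL into about 10 µL; 0% = median of vehicle wells and 100% = median of positive control wells; one replicate is shown; the record names a cut of 25% in any replicate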
# Beta2AR agonist – activates human beta-2 adrenergic receptor causing internalization | 340,000 compounds, 0.43% hits | Am2.2-beta2AR cells, FAP receptor internalization, flow cytometry; reference of the scale not given here | P07550 | response, % (no concentration beside the values);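 active = response above a set limit, near 3 SD of response in nonfluorescent compounds, cut at about 42% in these data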;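 also: stock transfer was 100 nL into about 11 µL; a reference agonist was the positive control; negative values mostly stem from fluorescent compounds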
# Target sequence (P07550 whole entry, looked up): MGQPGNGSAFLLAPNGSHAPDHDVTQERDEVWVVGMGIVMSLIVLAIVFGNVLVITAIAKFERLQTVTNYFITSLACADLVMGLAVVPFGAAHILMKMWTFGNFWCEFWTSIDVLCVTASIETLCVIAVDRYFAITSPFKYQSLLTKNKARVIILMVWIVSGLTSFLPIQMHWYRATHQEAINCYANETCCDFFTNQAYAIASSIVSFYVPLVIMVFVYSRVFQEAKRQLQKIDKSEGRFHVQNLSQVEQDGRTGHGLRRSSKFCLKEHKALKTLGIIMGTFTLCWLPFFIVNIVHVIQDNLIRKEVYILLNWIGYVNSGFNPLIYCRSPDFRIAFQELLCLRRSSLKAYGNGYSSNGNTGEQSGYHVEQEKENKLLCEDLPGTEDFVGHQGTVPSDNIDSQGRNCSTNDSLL
# UCH37 DUB inh – inhibitors of human deubiquitinating enzyme UCH37; purified proteasome/UCH37, Ub-AMC cleavage fluorescence; AID 588478; 330,000 compounds, 0.33% hits; inhibition, % (test concentration not listed); Q9Y5K5;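 active = mean of two replicates above 20%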;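 also: 0% = compound-free wells with enzyme and 100% = wells lacking proteasome; stock transfer was 100 nL into about 20 µL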
# Target sequence (Q9Y5K5 whole entry, looked up): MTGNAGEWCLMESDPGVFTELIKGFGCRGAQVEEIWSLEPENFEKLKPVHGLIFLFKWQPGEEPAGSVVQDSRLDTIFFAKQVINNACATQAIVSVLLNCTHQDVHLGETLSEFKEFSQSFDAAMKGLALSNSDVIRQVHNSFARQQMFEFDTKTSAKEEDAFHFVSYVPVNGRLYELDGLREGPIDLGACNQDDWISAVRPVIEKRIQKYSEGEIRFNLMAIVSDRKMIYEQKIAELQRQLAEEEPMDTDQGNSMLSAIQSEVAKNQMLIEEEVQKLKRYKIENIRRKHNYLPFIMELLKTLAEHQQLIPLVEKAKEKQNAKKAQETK
#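 Assay system: Proteasome-bound UCH37. Buffer or medium: pH 7.4 Tris-HCl (50 mM) with ovalbumin, ATP-MgCl2, DTT. Incubation: 30 min preincubation with enzyme, 25 min cleavage at room temperature. Measured by: fluorescence, ex 355 nm, em 460 nm. Read-out basis: percent inhibition. Control set: wells without proteasome as full block, compound-free enzyme plus substrate as uninhibited.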
# The depositor's hits bear a star; ? = inconclusive; nt = no result given; & = joins results of further samples.
SMILES,E coli growth,HNF4A DNA FP,Vif TR-FRET,Bfl-1 A1 inh,LANA-H2A inh,Beta2AR agonist,UCH37 DUB inh
CC(C)(C)OC(=O)N1Cc2ccccc2C[C@H]1C(=O)NCC(=O)Nc1ccc2c(c1)OCCO2,0.71,-3.4,nt,0.2,0.7,1,4.1
CN(C[C@H](CC1CCCCC1)N(C[C@H](Cc1ccccc1)N(CCc1ccccc1)N=O)N=O)N=O,nt,-1.6,19%,-0.2,4.9,-4,4.5
CCOC(=O)CCNC(=O)N1CCCC(CNS(=O)(=O)Cc2ccccc2)C1 (stereo unspecified),0.68,5.7,7%,0.5,-0.8,1,0.4
Cc1cc(=O)[nH]c2c(C)c(Cl)ccc12,nt,nt,21%,1.5,-4.0,nt,nt
CC(C)OC(=O)/C(=C/c1ccc(Br)cc1)NC(=O)c1ccco1,0.67,-2.2,nt,1.2,1.4,-8,3.8
CCOC(=O)N1CCC(NC(=O)c2ccc(CS(=O)(=O)c3ccccc3C)o2)CC1,0.78,-0.1,2%,1.4,1.3,12,3.1
O=C(CN1CCN(c2ccc(O)cc2)CC1)NC1CCCc2ccccc21 (stereo unspecified),0.7,nt,?,1.4,-0.8,nt,-0.3
Cc1ccc(S(=O)(=O)N2CCN(C(=O)N(c3ccccc3)c3ccccc3)CC2)cc1,0.67,-0.6,1%,0.1,1.4,0,0.8
COc1ccccc1CNC(=O)COC(=O)CSc1ccc(F)cc1,0.61,1.8,2%,-0.6,0.7,1,2.7
CCc1cccc(NC(=O)CS(=O)Cc2nc(-c3ccc(C)cc3)oc2C)c1 (stereo unspecified),0.71,0.7,-2%,1.6,-1.9,-3,2.9
CC(=O)NC(c1cccs1)c1cc(F)c2cccnc2c1O (stereo unspecified),0.66,-2.5,nt,-0.1,-3.4,7,-2.7
CCn1c(=O)n(CC)c2cc(S(=O)(=O)Nc3c(C)cccc3C)ccc21,0.66,1.4,-2%,0.0,-3.7,1,5.3
COC(=O)c1ccc(NC2c3ncccc3C(=O)N2Cc2cccs2)cc1 (stereo unspecified),0.68,0.0,21%,1.1,-2.9,2,1.8
COC(=O)C1CCN(S(=O)(=O)CCNC(=O)c2cccc(OC)c2)CC1,nt,-1.3,nt,-0.9,4.0,12,nt
O=[N+]([O-])c1ccc(Cl)c(/C=N/N2CCN(c3ccccc3)CC2)c1,nt,-2.9,7%,0.6,3.2,-15,nt
CC(C)C(=O)c1ccc(O)c(O)c1,0.64,-0.8,4%,-0.3,1.9,-4,5.9
O=C(Cn1cc(C(=O)C(F)(F)F)c2ccccc21)N1CCOCC1,0.69,0.1,nt,0.3,-3.4,0,2.8
CC(=O)c1ccc(N=Nc2ccc(C)cc2)cc1,0.69,1.1,-5%,nt,nt,0,5.6
CC1(C)CCC(=O)C=C1Nc1ccc(F)c(Cl)c1,0.67,0.3,nt,1.2,2.7,0,3.9
O=C(Oc1ccc(-c2cnc3ccccc3n2)cc1)c1ccco1,0.73,-1.4,-1%,-5.6,2.7,-23,-4.7
O=C(CSc1cn(CC(=O)N2CCOCC2)c2ccccc12)N1CCOCC1,0.69,-2.7,nt,-0.3,0.7,-5,3.8
Cc1cc(C)nc(N/N=C/c2cc(C)n(CC(F)(F)F)c2C)n1,nt,-0.1,21%,-0.1,0.5,1,nt
O=c1[nH]c(C2CCCN(S(=O)(=O)c3ccc(F)cc3)C2)nc2c1nnn2Cc1ccc(F)cc1 (stereo unspecified),0.69,0.2,nt,0.2,0.6,-2,2.3
CN1CCN(S(=O)(=O)c2ccc(Oc3ccc(F)cc3Br)nc2)CC1,0.66,2.0,4%,0.8,1.0,-3,2.9
Cc1c(NC(=O)c2cnn3c2NC(c2ccco2)CC3C(F)(F)F)c(=O)n(-c2ccccc2)n1C (stereo unspecified),0.68,1.3,11%&-4%,0.0,-0.8,-5,2.1
O=[n+]1c2c(n([O-])c3c1CCCC3)CCCC2,0.73,2.6,3%,0.6,1.8,-5,-0.2
CCOC(=O)c1cnc2cc(-c3ccc(Cl)cc3)nn2c1N,0.72,-1.8,?,-4.7,-2.1,4,-6.1
Cc1cc(N2CCCC2)ccc1/C=C1\NC(=S)N(C)C1=O,0.72,153,31%,-0.5,-9.2,-169,2.6
N=c1c2c(-c3ccccc3)c(-c3ccccc3)n(Cc3ccco3)c2ncn1CCCN1CCOCC1,0.72,1.1,19%,-0.1,-2.6,17,-0.4
O=C(COC(=O)CN1C(=O)NC2(CCCC2)C1=O)Nc1ccccc1C(F)(F)F,0.67,-2.9,-6%,0.3,-8.8,-1,4.1
Oc1ccc(-c2csc(Nc3ccc4c(c3)OCO4)n2)c(O)c1,0.58,-1.4,nt,nt,nt,-28,6.4
NNC(=O)COc1ccc(-c2nccc(-c3ccc(F)cc3)n2)cc1,0.67,1.1,1%,0.6,-6.4,17,3.5
O=C1CCC(=O)N1CNc1ccccn1,0.71,-0.6,18%,1.4,2.8,-15,1.0
O=C(COC(=O)C1CC(=O)N(c2ccc3c(c2)OCCO3)C1)NC1CCCc2ccccc21 (stereo unspecified),0.69,-3.2,-1%,-0.5,-11,0,22*
CC(Oc1ccc(Cl)cc1Cl)C(=O)NCCCn1ccnc1 (stereo unspecified),0.71,-1.6,-5%,-0.6,-0.1,-9,-2.0
CCOC(=O)c1c(CN2CCOCC2)n(-c2ccccc2)c2ccc(O)cc12,0.69,-0.6,3%,-0.1,-3.6,5,0.6
COc1ccccc1NC(=O)CCCCCN1C(=O)c2cccc3cccc(c23)C1=O,0.64,-0.1,nt,-0.5,4.3,-1,-7.3
Cc1ccc2nsnc2c1N,0.7,6.9,12%,1.4,-8.6,-2,-2.4
COc1ccccc1OCc1cc(C(=O)NCc2ccc(N3CCCC3=O)cc2)no1,0.63,2.1,nt,1.1,3.3,-2,2.6
O=C(NCCCN1CCCC1=O)c1ccc(NS(=O)(=O)c2cccc([N+](=O)[O-])c2)cc1,0.63,1.6,-1%,1.8,-1.5,-12,1.4
COc1ccc(NC(=O)c2ccccc2-c2ccc(C(F)(F)F)cc2)cc1S(=O)(=O)N1CCOCC1,0.69,1.9,1%,0.0,4.6,5,-0.7
CC(=O)Nc1cc(NC(C)=O)cc(C(=O)OCC(=O)c2ccc3c(c2)OCO3)c1,0.7,5.3,5%,0.6,0.9,-2,2.7
CCCCCCCC(=O)Nc1ccc(C(=O)N/N=C/c2cccc([N+](=O)[O-])c2)cc1,nt,-7.1,5%,0.2,6.0,-5,nt
C/[N+]([O-])=C\c1coc2ccccc2c1=O,0.72,-2.5,1%,0.9,0.5,-7,4.1
COc1cccc(OCCn2cc(C(C)=O)c3ccccc32)c1,0.65,4.7,nt,-1.7,-1.3,2,2.8
c1cncc(-c2nc(-c3cccs3)cs2)c1,0.7,-0.4,-2%,0.3,-3.9,-9,-2.4
COc1ccc(CN(C)Cc2cc(=O)oc3cc(C)c(C(C)C)cc23)cc1OC,0.65,-1.8,nt,-0.6,5.3,2,-0.4
CN(C(=O)CCN1C(=O)/C(=C/c2ccccc2F)SC1=S)C1CCS(=O)(=O)C1 (stereo unspecified),0.68,-2.1,nt,1.2,2.4,-6,7.5
Cc1nc(-c2ccncc2)nc(NCCNc2ncccc2C(F)(F)F)c1Cl,0.66,0.6,nt,0.5,1.9,2,4.8
CCN(CC)/C(=N/O)NC(=O)NS(=O)(=O)c1ccc(C)cc1,0.75,-1.2,9%,0.7,-1.1,-6,3.5
CCOC(=O)c1cnc(SCC)[nH]c1=O,0.69,1.0,7%&-13%,1.1,-8.1,3,2.0
c1ccc(-c2ccc(OCCCNC3CCCC3)cc2)cc1,0.64,0.1,nt,0.5,0.2,19,3.7
O=C(CN1CCC(C(=O)c2ccc3c(c2)OCCO3)CC1)Nc1ccccc1C(F)(F)F,0.69,-0.8,nt,-0.3,0.1,-4,3.4
CNS(=O)(=O)c1cccc(C(=O)NNC(=O)CN(C)S(=O)(=O)c2ccc(Cl)cc2)c1,0.71,1.3,10%,0.4,3.4,1,4.6
COc1ccc(C=C(C#N)C#N)c(CSc2ccccn2)c1,0.69,2.8,nt,0.5,-1.7,-1,1.1
CC(C)Oc1ccc(C(=O)Nc2cc(=O)n(C)c(=O)n2C)cc1,0.71,-3.8,0%,-0.6,-3.1,-48,5.8
COc1cc(/C=C/C(=O)N2CCCC2)cc(OC)c1OC,nt,0.7,-2%,1.1,9.1*,-8,nt
Cc1nc2ccccc2cc1C(=O)N/N=C/c1ccccc1[N+](=O)[O-],nt,-0.4,0%,-1.0,2.8,-2,nt
CCOc1ccc(Oc2ccccc2NC(=O)CCNC(C)=O)cc1,0.72,2.5,-9%,-0.3,8.5,-2,0.0
CCOC(=O)N1CCN(c2ccncc2S(=O)(=O)N2CCCCC2)CC1,nt,2.2,1%,0.3,0.1,-4,nt

# In the list so far, these contain bromine.
SMILES,E coli growth,HNF4A DNA FP,Vif TR-FRET,Bfl-1 A1 inh,LANA-H2A inh,Beta2AR agonist,UCH37 DUB inh
CC(C)OC(=O)/C(=C/c1ccc(Br)cc1)NC(=O)c1ccco1,0.67,-2.2,nt,1.2,1.4,-8,3.8
CN1CCN(S(=O)(=O)c2ccc(Oc3ccc(F)cc3Br)nc2)CC1,0.66,2.0,4%,0.8,1.0,-3,2.9

# The results go on:
SMILES,E coli growth,HNF4A DNA FP,Vif TR-FRET,Bfl-1 A1 inh,LANA-H2A inh,Beta2AR agonist,UCH37 DUB inh
O=C(CSc1nc2ccccc2s1)NC1CCCc2ccccc21 (stereo unspecified),0.71,3.3,nt,-0.3,-1.6,9,4.3
CC(=O)c1ccccc1NC(=O)COC(=O)CCC1CCCC1,0.69,-4.6,nt,0.5,1.9,-1,-0.7
COc1ccc(/C=C2\CN(Cc3ccccc3)C/C(=C\c3ccc(OC)cc3)C2=O)cc1,0.74,1.1,8%,0.6,-1.7,1,7.7
OC(COC(c1ccccc1)c1ccccc1)CN1CCCCC1 (stereo unspecified),0.67,2.9,nt,1.3,-3.0,8,3.1
CC1CCCCN1CC(O)COCc1ccccc1 (stereo unspecified),0.71,0.8,-2%,-0.9,-0.8,11,1.2
CN(C)C(=O)c1cn(-c2ccccc2)nc1-c1cccc([N+](=O)[O-])c1,0.65,-0.6,-9%,0.3,1.5,-19,3.9
Cc1ccc(OC(=O)CCC(=O)Nc2ccc(S(=O)(=O)Nc3cc(C)on3)cc2)cc1,0.67,1.0,4%,0.5,-0.2,-7,2.1
Cn1ccnc1C(O)c1ccco1 (stereo unspecified),0.68,3.0,6%,-0.3,3.0,8,2.7
Cc1nn(-c2ccccc2)c(C)c1/C=C/C(=O)OCC(=O)Nc1ccc(S(N)(=O)=O)cc1,0.67,2.2,1%,-0.6,1.7,-3,-4.3
S=C(Nc1cccnc1)Nc1ccccc1Br,0.7,2.1,-10%,-0.3,-3.3,2,2.0
Cc1ccc(OCC(=O)Nc2cccc(S(=O)(=O)N3CCCCCC3)c2)cc1C,0.63,-2.3,-1%,0.7,-4.2,-3,-0.5
Cc1ccc(S(=O)(=O)Nc2nc3ccccc3nc2NCc2ccc3c(c2)OCO3)cc1C,nt,-1.9,nt,-0.9,0.2,-1,nt
Cc1nc2ccccn2c1-c1csc(NCc2ccco2)n1,0.64,-1.9,5%,-0.9,-1.8,-4,-3.4
CN1CCN(C(=O)C2CC(=O)N(c3ccc(Cl)cc3)C2)CC1 (stereo unspecified),0.66,1.7,-2%,-0.5,-8.5,-5,3.7
COc1cccc(-n2c(=S)sc3c(=O)n(-c4ccccc4C)c(SCC(=O)O)nc32)c1,0.64,-0.3,0%,0.0,-2.8,3,9.4

# Outcome played no part in choosing rows; about 2.1% have a hit in one of these screens.
